# VDR inhibitor: vitamin D3 receptor (human) inhibition | P11473 | Potency, µM, for the others: max response, negative = inhibition, hits mostly inhibitors | hit rate 0.93% among 400,000 | VDR-SRC2-3 peptide fluorescence polarization, 2 h; active = well fitted inhibition curve with a large enough effect; inconclusive = small, poorly fitted or top-dose-only effect, or another doubt; inactive = no such curve, though single readings can be large or run the other way; also: series mostly up to about 120 µM
# Target sequence (P11473 whole entry, looked up): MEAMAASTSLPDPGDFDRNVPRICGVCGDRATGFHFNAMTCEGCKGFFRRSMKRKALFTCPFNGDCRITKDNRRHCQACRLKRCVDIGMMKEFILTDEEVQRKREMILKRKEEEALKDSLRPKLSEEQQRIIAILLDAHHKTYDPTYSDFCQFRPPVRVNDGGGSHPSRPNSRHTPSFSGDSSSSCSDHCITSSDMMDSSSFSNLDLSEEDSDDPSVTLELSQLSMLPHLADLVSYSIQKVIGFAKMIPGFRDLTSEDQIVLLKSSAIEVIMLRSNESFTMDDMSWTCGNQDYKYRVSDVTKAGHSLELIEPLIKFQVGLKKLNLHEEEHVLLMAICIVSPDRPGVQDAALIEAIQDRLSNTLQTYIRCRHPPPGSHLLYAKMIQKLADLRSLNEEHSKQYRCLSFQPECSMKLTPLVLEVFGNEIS
#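 Fluorescence polarization assay of small-molecule disruption of VDR binding to coregulator peptide SRC2-3. Compounds and controls pin-transferred, then read after 2 h incubation at ambient room temperature.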
# * hit, by the source's call; ? = inconclusive; & = joins results of further samples. % is scaled to controls: 0 for no effect and ±100 for the full control effect; potency is read from the fitted curve at half-maximal effect.
entry | Structure | VDR inhibitor
1 | O=C(/C=C/c1ccc(Cl)cc1)N[C@@]12CCC(=O)[C@@H]3Oc4c(O)ccc5c4[C@@]31CCN(CC1CC1)C2C5 | 1%
2 | COc1cccc(-c2nc3ccc(N4CCN(C)CC4)cc3[nH]2)c1 | 7%
3 | Clc1ccc([C@@H](OCCN2CCCCC2)c2ccccc2)cc1 | 13%
4 | C#CCNc1ccncc1S(=O)(=O)NC(=O)NC(C)C | 10%
5 | Cc1cc(OCC(=O)N[C@H](C(=O)O)c2ccccc2)c2c3c(c(=O)oc2c1)CCC3 | -11%
6 | Cc1ncc(CN2CCCC(C(=O)c3sccc3C)C2)s1 (configuration not stated) | 7%
7 | Cc1oc(-c2cccs2)nc1CSCC(=O)N1CCC2(CC1)OCCO2 | -10%
8 | Cn1cc(C(=O)OCC(=O)NC2(C#N)CCCCC2)c2ccccc21 | 7%
9 | O=C1N[C@H](Cc2ccccc2)C(=O)N2[C@@H]3[C@H](C[C@@H]12)c1ccccc1N3OOSc1ccccc1 | -7%
10 | CCC(C)(C)c1ccc(O)cc1 | -9%&2%
11 | O=C(Nc1ccc(Cl)cc1C(=O)c1ccccc1)c1ccccc1Br | -16%
12 | O=C(Nc1cccc(Cl)c1)N1C[C@H]2C[C@@H](C1)c1cccc(=O)n1C2 | 10%
13 | O=S1(=O)CC2(N3CCOCC3)CCCCC21 (configuration not stated) | -2%
14 | Nc1ncc([N+](=O)[O-])s1 | -5%
15 | Cc1ccc(NC(=O)c2cccn(Cc3ccccc3C)c2=O)c(C)c1 | 10%
16 | O=P(OCC(F)(F)C(F)F)(N1CCCCC1)N1CCCCC1 | -18%
17 | O=C(CN1CC=C(c2ccccc2)CC1)NC(=O)NCc1ccccc1 | -12%
18 | CN1C(=O)NC(=O)C(N=Nc2ccc(Cl)cc2)C1=O (configuration not stated) | -8%
19 | CCOC(=O)C1CCN(/C=C2/C(=O)NC(=O)N(c3ccc(OCC)cc3)C2=O)CC1 | 3%
20 | CC(=O)OCC(=O)[C@H]1CC[C@H]2[C@@H]3CC[C@H]4C[C@H](O)CC[C@]4(C)[C@H]3C(=O)C[C@]12C | -5%
21 | CC(=NCc1ccc2c(c1)OCO2)c1c(O)n(-c2ccccc2)c(=O)[nH]c1=O | 2%
22 | C/C(=N\NC(=O)c1ccccc1O)c1c(O)n(C2CCCCC2)c(=O)[nH]c1=O | 4%
23 | COC(=O)[C@]1(C)CC[C@@]2(C)CC[C@@]3(C)C4=CCc5c(cc(O)c(O)c5C)[C@]4(C)CC[C@@]3(C)C2C1 (some centres not stated) | 28µM*
24 | COc1cccc2c1cc([N+](=O)[O-])c1c(C(=O)O)cc3c(c12)OCO3 | -23%
25 | Cc1ccc(CN2CCCC(C(=O)c3sccc3C)C2)o1 (configuration not stated) | 14%
26 | Cc1ccc(/C=C2/C(=O)NC(=O)N(C)C2=O)cc1 | -9%
27 | CN1CCN(c2ccc3nccnc3c2)CC1 | 13%
28 | Cc1ccc2cccc(OC(=O)N(C)c3ccccc3)c2n1 | -10%
29 | OC[C@H]1O[C@@H](n2cnc3cc(Cl)c(Cl)cc32)[C@H](O)[C@H]1O | ?
30 | COCCO[C@H]1CCC2C3CC=C4C[C@@H](O)CC[C@]4(C)C3CC[C@@]21C (some centres not stated) | -10%
31 | C=C1C(O)(c2ccccc2)C2CC[N+]1(C)CC2 (configuration not stated) | ?
32 | O=c1c2ccccc2nc(-c2ccccc2Cl)n1-c1ccc(O)cc1 | -10%
33 | CCCCC/C=C\C/C=C\C/C=C\C/C=C\CCCC(=O)NCc1ccc(O)c(OC)c1 | 45µM*
34 | Fc1cccc(F)c1-c1nc(-c2ccc(Cl)cc2)no1 | -5%
35 | Cc1ccc(Sc2ccc(C=C3C(=O)N(C)C(=O)N(C)C3=O)o2)cc1 | ?
36 | CNC(=O)O/N=C(\N)Cc1csc2ccccc12 | 2%
37 | CCC(C)n1c(O)c(/C=N/N2CCOCC2)c(=O)[nH]c1=S (configuration not stated) | -9%
38 | C[C@H]1CC[C@@H]2[C@@H](C)[C@H]3C(CC4C5CC=C6CC(O[C@@H]7O[C@H](CO)C(O[C@@H]8O[C@@H](C)[C@H](O)[C@@H](O)[C@H]8O)[C@H](O)[C@H]7O[C@@H]7O[C@@H](C)[C@H](O)[C@@H](O)[C@H]7O)CC[C@]6(C)C5CC[C@@]43C)N2C1 (some centres not stated) | -10%
39 | CCN(CC)c1ccc(/C=C2\C(=O)NC(=S)N(C)C2=O)o1 | 8%
40 | C=C1N2CCC(CC2)C1(O)c1ccc(C)cc1 (configuration not stated) | 10%
41 | C/C(Cl)=C/CC1(CN2CCCC2=O)C(=O)NC(=O)NC1=O | 10%
42 | CC(C)[C@H](NC(=O)[C@H](CCC(=O)O)NC(=O)[C@H](Cc1ccccc1)NC(=O)[C@H](C)NC(=O)[C@@H](N)Cc1ccc(O)cc1)C(=O)N[C@H](C(=O)NCC(N)=O)C(C)C | -3%
43 | COc1ccc2c(c1)C1(C(=O)O)CC=CCC1(C(=O)O)C2 (configuration not stated) | -14%
44 | COC(=O)C1=C(c2ccc(-c3ccccc3)c(F)c2)C[C@@H]2CC[C@H]1N2C(=O)N1CCC(C)CC1 | -13%
45 | O=C1CN=C(c2ccc(Br)cc2)c2c(sc3c2CCCC3)N1CCN1CCCCC1 | -27%
46 | CC1CNCCN1c1ccc(Cl)cc1 (configuration not stated) | 15%
47 | CNC(Cc1c[nH]c2ccccc12)C(=O)O (configuration not stated) | 2%
48 | CN1C2CCC1C(COC(=O)c1ccccc1)C(O)C2 (configuration not stated) | -7%
49 | Cc1ccc(CNCCc2ccccc2F)cc1 | 1%
50 | COC(=O)C1=C(c2ccc(F)cc2OCc2ccccc2)C[C@@H]2CC[C@H]1N2C(=O)NCc1ccc(OC)c(OC)c1 | -20%
51 | Cc1ccc2c(c1)=NC(=O)/C(=C/c1c(O)[nH]c(=O)[nH]c1=O)C=2 | 79µM*
52 | Cc1ccsc1C(=O)C1CCCN(Cc2ccc(O)cc2)C1 (configuration not stated) | -15%
53 | COc1ccc(CNC(=O)CCC(=O)N2C[C@H]3C[C@H](C2)c2cccc(=O)n2C3)cc1 | -20%
54 | Cc1ccsc1C(=O)C1CCCN(Cc2cc(C(C)C)n[nH]2)C1 (configuration not stated) | -22%
55 | CN1CCN(c2ccc([N+](=O)[O-])c(N/N=C3\CN4CCC3CC4)c2)CC1 | 6%
56 | COc1ccc2ccccc2c1CNCCc1ccccc1 | -20%

# Later entries.
entry | Structure | VDR inhibitor
57 | COc1cccc(N2C(=O)/C(=C/c3ccc(C)o3)C(=O)NC2=S)c1 | ?
58 | NCCCP(=O)(O)CC1CCCCC1 | 5%&10%
59 | FC(F)(F)c1cccc(NC2=NCCCS2)c1 | -26%
60 | CN1C[C@@H](CO)C=C2c3cccc4[nH]cc(c34)CC21 (some centres not stated) | -12%
61 | O=C1CN=C(c2ccccc2)c2cc(Br)ccc2N1Cc1cc(=O)n2ccccc2n1 | -21%
62 | COC(=O)C1=C(c2cccc(OC)c2OC)C[C@@H]2CC[C@H]1N2C(=O)NCc1ccc(C(F)(F)F)cc1 | -17%
63 | Cc1c(N=Cc2c(O)n(Cc3ccc(F)cc3)c(=O)[nH]c2=O)c(=O)n(-c2ccccc2)n1C | 18%
64 | Cn1c(=O)cc(OCC(=O)N2CCC3(CC2)OCCO3)c2ccccc21 | 5%
65 | OCCNCCc1c[nH]c2ccc(OCc3ccccc3)cc12 | 4%
66 | COc1ccc(-n2nc(C(=O)NCC(=O)N3CCC4(CC3)OCCO4)c3ccccc3c2=O)cc1Cl | 8%
67 | COc1cc(OC)c(OC)cc1CNCCc1ccc2c(c1)OCO2 | 1%
68 | COC(=O)C1=C(c2cccc(OCc3ccccc3)c2)C[C@@H]2CC[C@H]1N2C(=O)NCc1ccc(Br)cc1 | -13%
69 | CC(C)c1onc(C(=O)N2CCC3(CC2)OCCO3)c1[N+](=O)[O-] | -9%
70 | CN1CCN(c2ccc(C(N)=O)cc2[N+](=O)[O-])CC1 | 11%
71 | Nc1cc(C(=O)Nc2ccc(Cl)cc2)ccc1N1CC2CC(C1)c1cccc(=O)n1C2 (configuration not stated) | -14%
72 | CN1CCN(c2cc(N3CCCC3)c([N+](=O)[O-])cc2F)CC1 | 5%

# Random excerpt: four entries already listed, in no set order.
entry | Structure | VDR inhibitor
21 | CC(=NCc1ccc2c(c1)OCO2)c1c(O)n(-c2ccccc2)c(=O)[nH]c1=O | 2%
12 | O=C(Nc1cccc(Cl)c1)N1C[C@H]2C[C@@H](C1)c1cccc(=O)n1C2 | 10%
55 | CN1CCN(c2ccc([N+](=O)[O-])c(N/N=C3\CN4CCC3CC4)c2)CC1 | 6%
56 | COc1ccc2ccccc2c1CNCCc1ccccc1 | -20%

# Other results.
entry | Structure | VDR inhibitor
73 | CC(=O)O[C@H]1C[C@@H](O[C@@H]2[C@H](C)O[C@H](O[C@@H]3[C@H](C)O[C@H](O[C@@H]4CC[C@@]5(C)[C@@H](CC[C@]6(C)[C@]5(C)C[C@H](O)[C@]5(C)[C@@H](C7=CC(=O)OC7)CC[C@@]56O)C4)C[C@@H]3O)C[C@@H]2O)O[C@@H](C)[C@H]1O[C@H]1O[C@@H](CO)[C@@H](O)[C@@H](O)[C@@H]1O | 4%
74 | CC(C)(C#N)O[C@H]1OC(CO)C(O)C(O)C1O (some centres not stated) | 4%
75 | CC(=O)c1ccc(OC(NC(=O)c2ccco2)C(Cl)(Cl)Cl)cc1 (configuration not stated) | -9%
76 | Cc1ccccc1-n1nc(C)c2c1NC(=O)CSC2c1ccc(N(C)C)cc1 (configuration not stated) | 10%
77 | CN1CCN(c2cc(N3CCCCCC3)c(F)cc2[N+](=O)[O-])CC1 | -29%
78 | COc1cc(/C=C/c2nc3ccccc3c(=O)n2-c2cccc(O)c2)ccc1O | -2%
79 | CN(C)c1ccc(NC(=O)c2sc3nc4c(cc3c2N)N2CCC4CC2)cc1 | 11%
80 | O=Cc1ccco1 | -1%
81 | c1ccc(CN2CCN(Cc3ccc4c(c3)OCCO4)CC2)cc1 | 3%
82 | CC(C)C[C@H](NC(=O)[C@H](CC(C)C)NC(=O)[C@H](Cc1ccccc1)NC(=O)[C@@H](N)Cc1ccc(O)cc1)C(=O)N[C@@H](CCCN=C(N)N)C(=O)N[C@@H](CC(N)=O)C(=O)N1CCC[C@H]1C(=O)O | 0%
83 | O=C(CN1CCOCC1)Nc1ccc(Br)cc1C(=O)c1ccccc1 | 0%
84 | COc1ccc(NP2(=O)NCCCN2)cc1 | -19%
85 | COc1ccc(-c2nc3ccccc3c(=O)n2-c2nccs2)cc1 | 13%
86 | Oc1ccccc1CN(CCc1ccccc1)Cc1ccccc1 | -14%
87 | CCN(CC)CCN=Cc1c(O)n(CCc2ccccc2)c(=O)[nH]c1=O | -3%
88 | O=c1c2ccccc2nc(/C=C\c2ccc(F)cc2)n1-c1ccccc1F | 8%

# Rewritten with each value named: 4 of the compounds above.
84	COc1ccc(NP2(=O)NCCCN2)cc1
  VDR inhibitor = -19%
85	COc1ccc(-c2nc3ccccc3c(=O)n2-c2nccs2)cc1
  VDR inhibitor = 13%
86	Oc1ccccc1CN(CCc1ccccc1)Cc1ccccc1
  VDR inhibitor = -14%
87	CCN(CC)CCN=Cc1c(O)n(CCc2ccccc2)c(=O)[nH]c1=O
  VDR inhibitor = -3%

# The list continues:
entry | Structure | VDR inhibitor
89 | C[C@H](Cc1ccc2c(c1)OC(C(=O)O)(C(=O)O)O2)NC[C@H](O)c1cccc(Cl)c1 | 1%
90 | C=CCn1c(O)c(C(C)=NC2CCN(Cc3ccccc3)CC2)c(=O)[nH]c1=O | ?
91 | COc1ccc(Cn2c(N)c(C(=O)NCc3ccco3)c3nc4ccccc4nc32)cc1OC | 2%
92 | CCOP(=O)(Cc1ccc(C(=O)CC)o1)OCC | 18%
93 | C[C@]12CCC3C(CC[C@H]4C[C@@H](O)CC[C@]34C)C1CC[C@@H]2OC(=O)[C@H](N)CCCCN (some centres not stated) | 17%
94 | CC(=NC1CCN(Cc2ccccc2)CC1)c1c(O)n(C)c(=O)n(C)c1=O | 5%
95 | CC(C)CCN1CCN(Cc2c(F)cccc2Cl)CC1CCO (configuration not stated) | 2%
96 | COc1cc(OC)c(OC)cc1/C=C1\C(=O)NC(=O)N(Cc2ccccc2)C1=O | -14%
97 | Cc1cccc(N2C(=O)NC(=O)/C(=C\c3cnn(-c4ccccc4)c3)C2=O)c1 | ?
98 | N#Cc1c(/N=C/c2c(O)n(Cc3ccco3)c(=O)[nH]c2=O)sc2c1CCCC2 | 79µM*
99 | COc1ccc(CC(C)NCCC(c2ccccc2)c2ccccc2)cc1 (configuration not stated) | -2%
100 | N#Cc1ccccc1Cn1cc(C(=O)c2cccs2)c2ccccc21 | -5%
101 | COC(=O)C1=C(c2ccc(OCc3ccccc3)cc2)C[C@@H]2CC[C@H]1N2C(=O)NCc1cccc(C(F)(F)F)c1 | 1%
102 | O=c1c2ccccc2nc(-c2ccco2)n1-c1nccs1 | -3%
103 | Oc1ccc2ccccc2c1CN1CC=C(c2ccccc2)CC1 | -30%
104 | CC(C)(O)[C@@H]1[C@H]2OC(=O)[C@@H]1[C@]1(O)C[C@H]3O[C@]34C(=O)O[C@H]2[C@@]14C (tested in a mixture with another compound) | -1%
105 | COc1ccc(NC(c2ccccc2F)P(=O)(Oc2ccccc2)Oc2ccccc2)cc1 (configuration not stated) | 0%
106 | CC1=C2C[C@H]3[C@@H](CC=C4C[C@@H](O)CC[C@@]43C)[C@@H]2CC[C@]12O[C@@H]1C[C@H](C)CN[C@H]1C2C (some centres not stated) | 1%
107 | CC(Cc1ccccc1)NC(=O)/C=C/c1ccc(Cl)cc1 (configuration not stated) | -2%
108 | Cc1c2cnn(CC(=O)N3CCC4(CC3)OCCO4)c(=O)c2c(C)n1Cc1ccccc1Cl | -2%
109 | COc1ccc(Oc2c(C)oc3cc(OC(=O)N(C)C)ccc3c2=O)cc1 | 1%
110 | CC1=C(C(=O)Nc2ccccc2)S(=O)(=O)CCO1 | -9%
111 | CCOC(=O)C1C2c3ccccc3O[C@@]1(C)N=C1SCC(=O)N12 (some centres not stated) | 6%
112 | COc1ccc(OC)c(-n2c(O)c(/C=C3\C=Nc4ccccc43)c(=O)[nH]c2=O)c1 | -24%

# Not all compounds are listed; rates above refer to the full screens.
